Compound activity as filed in PubChem BioAssay.
TRPML1 blocker: human mucolipin-1 channel inhibition; TRPML1-inducible cells, Ca2+ dye fluorescence, FDSS; hits give low values; inhibition of EC80 agonist-evoked calcium signal; activity change, negative = inhibition, % (test concentration not listed); 390,000 tested, 0.02% active; AID 624415; in the data active means activity change below about -50%; inconclusive means about -30% to -50%; inactive means above about -30%;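 note: stimulus is agonist 54-4 at its EC80 concentration; % is set by controls: 0 for no effect and ±100 for the full control effect; compound concentration not given in the record; the text of the record puts the active cut at -80%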
Target sequence (Q9GZU1 whole entry, looked up): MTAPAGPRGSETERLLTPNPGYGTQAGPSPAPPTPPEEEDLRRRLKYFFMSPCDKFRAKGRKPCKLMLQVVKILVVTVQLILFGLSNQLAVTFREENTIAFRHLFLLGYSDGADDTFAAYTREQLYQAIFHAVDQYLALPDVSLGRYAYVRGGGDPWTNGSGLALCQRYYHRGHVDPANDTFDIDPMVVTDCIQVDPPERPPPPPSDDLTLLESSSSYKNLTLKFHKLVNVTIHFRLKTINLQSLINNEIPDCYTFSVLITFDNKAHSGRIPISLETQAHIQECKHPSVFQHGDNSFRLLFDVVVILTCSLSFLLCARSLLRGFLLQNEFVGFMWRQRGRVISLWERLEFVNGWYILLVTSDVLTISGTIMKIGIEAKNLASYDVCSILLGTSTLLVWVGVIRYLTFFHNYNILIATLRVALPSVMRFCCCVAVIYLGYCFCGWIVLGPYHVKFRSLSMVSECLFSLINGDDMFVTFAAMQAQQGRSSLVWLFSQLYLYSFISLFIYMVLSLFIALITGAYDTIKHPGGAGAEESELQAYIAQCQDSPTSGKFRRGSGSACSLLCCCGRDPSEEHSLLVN
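Calcium fluorescence in TRPML1-DL cells induced overnight with Tet: a 110 s read after compound pin addition, then a 110 s antagonist read after challenge with 54-4 at 4 uM final (EC80).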
D2 agonist: human D2 receptor agonism in beta-arrestin assay | P14416 | 360,000 tested, 0.084% active | DiscoveRx PathHunter D2 beta-arrestin, luminescence, 90 min; 100% = 57 uM dopamine signal | activation, % (concentration not given with the values); in the data active = activation above about 40%; inconclusive = about 15% to 40%; inactive = below about 15%; note: compound concentration not given in the record; the text of the record calls up to 30% inactive
Target sequence (P14416 whole entry, looked up): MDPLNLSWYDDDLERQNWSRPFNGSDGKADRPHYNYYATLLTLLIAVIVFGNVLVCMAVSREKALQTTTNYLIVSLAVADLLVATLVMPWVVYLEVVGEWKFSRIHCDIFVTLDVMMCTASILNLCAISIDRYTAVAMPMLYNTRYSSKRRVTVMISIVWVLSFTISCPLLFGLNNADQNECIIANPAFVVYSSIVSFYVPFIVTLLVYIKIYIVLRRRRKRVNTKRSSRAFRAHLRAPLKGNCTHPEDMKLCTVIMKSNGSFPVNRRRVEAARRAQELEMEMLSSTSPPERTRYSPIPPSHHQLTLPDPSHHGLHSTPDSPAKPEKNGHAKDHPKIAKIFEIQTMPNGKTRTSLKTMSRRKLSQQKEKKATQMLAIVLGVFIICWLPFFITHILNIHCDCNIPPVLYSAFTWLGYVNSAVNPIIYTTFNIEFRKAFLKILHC
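Agonist mode: compounds alone added to overnight-plated D2 PathHunter cells for 90 min at 37 C, with 57 uM final dopamine (EC100) defining full response. Beta-arrestin recruitment detected by chemiluminescent reagent, read after 1 h at ambient temperature.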
D2 potentiator: human D2 receptor positive allosteric modulation. DiscoveRx D2 beta-arrestin cells, luminescence, 90 min; 100% = 57 uM dopamine signal. 360,000 tested, 0.23% active. potentiation, % (no concentration beside the values); active = potentiation of 50% or more; inconclusive = 30% to 50%; inactive = 30% or less;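 note: compound concentration not given in the record; tested on top of an EC20 dose of dopamine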
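D2 cells co-treated with compound plus 50 nM dopamine (EC20) for 90 min at 37 deg C to detect potentiation. Beta-arrestin recruitment was read as enzyme-fragment luminescence after 1 h at ambient temperature. Full response was set by 57 uM dopamine.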
TRPML1 ag: activates the human TRPML1 channel | Q9GZU1 | TRPML1-expressing cells, Ca2+ dye fluorescence, FDSS; host cell line not named in the record; reference of the full effect not given here | activation, % (test concentration not listed) | 410,000 tested, 0.12% active; in the data active = activation above about 50%; inconclusive = about 30% to 50%; inactive = below about 30%; note: 0% is about no effect; the text of the record puts the active cut at 80%
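Tet-induced TRPML1-DL cells, 1,500 per well, cultured overnight, were loaded with a no-wash Ca2+ dye for 45–90 min. Calcium fluorescence was recorded on the FDSS for 110 s after compound addition, before the EC80 agonist (4 uM 54-4) was added.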
PINK1 modulator: changes PINK1 expression. PINK1 immunofluorescence, high-content cytometry, 24 h. Potency, µM (top dose mostly 76.6 µM), without a hit: top-dose activation (PINK1 increase), hits mostly activators. 410,000 tested, 0.2% active. AID 624263; active = well fitted activation curve with a large enough effect; inconclusive = small, poorly fitted or top-dose-only effect; inactive = flat fitted curve, though single readings scatter; cell line not stated here;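 note: potency is the fitted concentration of half-maximal effect; % of control where 0% means no effect; nearly all actives have a fitted effect of over 65% in size; a mitochondrial uncoupler was the plate control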
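Readout is PINK1 immunofluorescence, quantified alongside mitochondrial, cell and nuclear markers by laser-scanning microplate cytometry. Cells from a stable line were exposed to compound titrations (5 concentrations) for 24 hours, with CCCP controls.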
Six1-Eya2 inh: blocks human Six1 binding to Eya2; Q15475+O00167; AlphaScreen GST-Six1/His-Eya2 binding, biochemical; hits give low values; control for the full effect not named in the record; activity change, % (no concentration beside the values); 360,000 tested, 0.56% active; AID 651725; in the data active = activity change below about -65%; inconclusive = about -30% to -65%; inactive = above about -30%; note: % is set by controls: 0 for no effect and ±100 for the full control effect; compound concentration not given in the record
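AlphaScreen with GST-Six1 and His-Eya2 (5X mix: 250 nM and 500 nM), glutathione donor and nickel acceptor beads; buffer 50 mM Tris pH 8.0, 300 mM NaCl, 1 mM TCEP; 1 h at 37 C in the dark.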
* marks the source's active call; other numbers are inactive results; ? = inconclusive; . = not tested or not shown; [ ] = another dose, or the depositor's remark.

SMILES	TRPML1 blocker	D2 agonist	D2 potentiator	TRPML1 ag	PINK1 modulator	Six1-Eya2 inh
CCC(=O)N1Cc2cc(C(=O)N(C)C)nc(-c3cccc(-c4cncnc4)c3)c2[C@@H]1CCO	.	.	.	-0.3	-0.6%	-4
Cc1ccc(NC(=S)N2CC(C)OC(C)C2)cc1C (configuration not stated)	18	1.6	-5	1.6	0.6%	7
CC(C)CCn1c(O)c(N=NC(=O)Cn2ccc(C(F)(F)F)n2)c2ccccc21	-1	-4.7	-3	-0.5	1.2%	-6
CCC(C)[C@H](NC(=O)NCc1cccnc1)C(=O)OC (some centres not stated)	-24	4.0	7	2.3	0.5%	0
CCOc1ccc(CN2C(=O)c3ccccc3Sc3ccc(C(=O)N4CCN(C)CC4)cc32)cc1	-3	.	.	0.1	2.2%	.
Cc1cccc(N2CCN(C(=O)COc3ccc4c(C)cc(=O)oc4c3C)CC2)c1C	7	0.9	-8	0.6	-0.3%	-12
O=C(CSc1nc(-c2ccccc2)cs1)Nc1nccs1	47	-0.6	-3	-0.1	6.8%	-1
O=C(CN1CCCCC1)NNC(=O)c1cccc(Br)c1	22	-13	-31	0.2	-2.2%	1
COc1ccc(O)c(C(=O)c2cc(C(=O)NCCc3ccccc3)c(=O)n(CCc3ccccc3)c2)c1	53	14	69*	2.9	2.4%	?
CC(NC1=CC(=O)c2cccnc2C1=O)C(O)c1ccccc1 (configuration not stated)	36	?	15	-0.2	-0.6%	-10
Cc1ccc(C)c(-n2c(-c3ccncc3)n[nH]c2=S)c1	16	-2.4	-4	-0.7	-1.8%	-11
Cc1ccc(SCC(=O)Nc2ccc3oc(-c4cccc(Cl)c4)nc3c2)cc1	-3	.	.	3.5	8.9%	.
COc1ccc(C(C)(NC(C)=O)c2nc(-c3ccc(F)c(Cl)c3)cs2)cc1 (configuration not stated)	.	4.3	-3	-0.3	3.7%	2
O=C(NC(c1ccc(-c2ccccc2)cc1)c1cnccn1)C1CCN(Cc2ccc(Cl)c(Cl)c2)CC1 (configuration not stated)	.	-3.3	-9	0.7	0.2%	-9
COc1cc(NCCCCC(C)N)c2nccc(C)c2c1 (configuration not stated)	5	2.0	0	-0.5	-1.3%	-15
CCCCOC(=O)c1ccc(NC(=O)c2ccoc2C)cc1	36	0.5	-4	0.3	-1.3%[38.3 µM]	-5
O=C(NNC(=O)C1[C@H]2CCCC[C@@H]12)c1ccc(=O)oc1 (some centres not stated)	-7	-3.7	0	0.4	0.9%	18
Cc1ccc(C(C(=O)NCc2ccccc2)N(C(=O)c2csnn2)C2CC2)cc1 (configuration not stated)	-9	3.2	-3	0.3	-2.3%	2
CCCn1nnnc1NCc1cc(Br)ccc1OC	0	1.7	0	-0.6	-0.1%	-1
N/C(=N\N=C\c1cccc([N+](=O)[O-])c1)c1nonc1N	4	-2.0	-1	5.6	-0.9%	-3
Cc1cc([N+](=O)[O-])ccc1NC(=O)C1CCCO1 (configuration not stated)	-5	0.2	-9	-0.2	1.1%	3
O=C(Cn1c(=O)cnc2ccccc21)N1CCN(S(=O)(=O)c2ccc(F)cc2)CC1	-5	-2.5	-13	-1.0	1.8%	2
Cc1cc(S(=O)(=O)Nc2ccc3[nH]c(=O)sc3c2)ccc1F	5	.	.	-0.8	1.7%	.
Cc1ccccc1OCC(=O)NNC(=O)C1CCCCC1C(=O)O (configuration not stated)	14	-1.8	-28	0.4	-1.5%	-1

Brought forward from above: 3 entries, then new ones.
SMILES	TRPML1 blocker	D2 agonist	D2 potentiator	TRPML1 ag	PINK1 modulator	Six1-Eya2 inh
O=C(Cn1c(=O)cnc2ccccc21)N1CCN(S(=O)(=O)c2ccc(F)cc2)CC1	-5	-2.5	-13	-1.0	1.8%	2
Cc1cc(S(=O)(=O)Nc2ccc3[nH]c(=O)sc3c2)ccc1F	5	.	.	-0.8	1.7%	.
Cc1ccccc1OCC(=O)NNC(=O)C1CCCCC1C(=O)O (configuration not stated)	14	-1.8	-28	0.4	-1.5%	-1
CCOc1cc(N2CCOCC2)c(OCC)cc1NCC(=O)N1CCN(Cc2ccccc2)CC1	9	1.3	-2	-0.8	1.8%	-17
O=C(c1cc(-c2cccc(O)c2)on1)N1CCCCCC1	-13	-1.6	2	-0.6	21%	-1
O=C(CNc1cccc(C(F)(F)F)c1)N/N=C/C1CCCCC1	-23	-4.9	-4	2.0	6.7%	5
O=C1/C(=C/c2ccc(O)cc2)COc2ccccc21	10	0.8	-1	1.6	-2.5%	8
CC(=O)Nc1ccc2nc(NC(=O)COc3ccc(C)cc3)sc2c1	-8	-4.0	-10	-1.3	3.3%	8
O=C(NCc1ccccc1)c1cc2ccc3cccnc3c2[nH]1	25	.	.	0.1	-1.6%	.
Cc1ccc2oc(-c3cccc(NC(=O)c4cccc5c(Br)cccc45)c3)nc2c1	11	.	.	-0.3	1.7%	.
C[C@H]1CN([C@@H](C)CO)C(=O)CCCn2nncc2CO[C@@H]1CN(C)Cc1cccc(O)c1	25	-1.2	1	0.1	2.7%	-18
O=C(Nc1nccs1)c1ccc(N2CCOCC2)c([N+](=O)[O-])c1	-1	-3.5	-2	0.3	3.9%	-18
CC(=O)N1CCc2cc(NS(=O)(=O)c3cccs3)ccc21	43	-0.7	-20	-0.2	0.5%	6
CN(C)/C=C1/C=C(C=O)OC1=O	-8	4.3	11	0.0	1.4%	2
NC(=S)N/N=C\c1c(OCc2ccccc2Cl)ccc2ccccc12	-5	-4.9	-14	5.0	1.3%	-25

The last 3 entries of the part before are carried over, then new ones follow.
SMILES	TRPML1 blocker	D2 agonist	D2 potentiator	TRPML1 ag	PINK1 modulator	Six1-Eya2 inh
CC(=O)N1CCc2cc(NS(=O)(=O)c3cccs3)ccc21	43	-0.7	-20	-0.2	0.5%	6
CN(C)/C=C1/C=C(C=O)OC1=O	-8	4.3	11	0.0	1.4%	2
NC(=S)N/N=C\c1c(OCc2ccccc2Cl)ccc2ccccc12	-5	-4.9	-14	5.0	1.3%	-25
COc1ccccc1C(=O)NNC(=O)C(=O)Nc1ccc(C)c(Cl)c1	2	-4.2	1	-0.7	0.5%	-14
COc1ccc(S(=O)(=O)NCc2cccnc2)cc1NC(=O)c1ccccc1C	-6	-3.9	-5	0.0	0.8%	17
O=[N+]([O-])c1ccccc1N/N=C/c1cccc(O)c1O	13	-3.2	-10	-0.3	1.7%	-16
O=C(NCc1ccccc1)C1CCN(C(=O)NCc2ccccc2)CC1	19	0.3	1	0.2	-1.1%	4
CN(C(=O)c1cc2ccccc2oc1=O)C1(C)CCS(=O)(=O)C1 (configuration not stated)	0	-2.4	2	0.2	-0.5%	3
CCN(CCCNC(=O)C1CCC(=O)N1C(C)C)c1cccc(C)c1 (configuration not stated)	38	-2.7	5	1.2	3.2%[38.3 µM]	-1
Cc1cc(C)n(CC(O)COc2ccc3ccccc3c2)n1 (configuration not stated)	-19	-4.1	2	-0.7	4.1%	-4
O=C(Nc1ccc(C(F)(F)F)cc1)c1cc(S(=O)(=O)NCC2COc3ccccc3O2)ccc1F (configuration not stated)	-15	6.3	12	2.8	?	15
Cc1ccc(-c2nc3c4c(-c5ccccc5)c(-c5ccccc5)oc4ncn3n2)cc1	30	.	.	0.2	0.8%	.
CCCn1cnc2c(=S)nc(N)[nH]c21	-4	-0.1	-8	0.0	2.5%	-10
COc1cc(OC)c(NC2=NCCCCC2)cc1Cl	-15	-4.3	-27	0.8	2.7%	2
CCOC(=O)[C@H]1[C@H]2COc3ccc(OC)cc3[C@@H]2N2C(=O)CN(Cc3ccc(C)cc3)C(=O)[C@@]12C	11	2.9	6	-0.3	0.6%	-10
Cc1cccc([C@@H]2[C@@H]3C(=O)N(Cc4ccccc4)C(=O)[C@@H]3[C@]3(Cc4ccc(Cl)cc4)C(=O)N(c4cccc(Cl)c4)C(=O)N23)c1	-8	-2.6	-6	-0.1	-0.5%	-2
CC1CCN(C(=O)c2ccc(NS(=O)(=O)c3ccc4[nH]c(=O)[nH]c4c3)cc2)CC1	-4	1.1	-11	1.3	-0.6%	0
CC(=O)Nc1cccc(NC(=O)c2ccc(S(=O)(=O)NCc3ccco3)cc2)c1	12	-2.3	-27	-0.1	-1.1%	-10
O=C1C2C(C(=O)N1CCN1CCN(Cc3ccc([N+](=O)[O-])cc3)CC1)[C@H]1C=C[C@@H]2C1 (some centres not stated)	-4	-5.3	-18	-0.3	-1.5%	-5
Cc1nc(-c2ccccc2)cc(N2CCCC2)n1	-9	-1.8	-10	0.2	-2.5%[38.3 µM]	-6
Cc1cccc(Nc2nc(C)cc(C)n2)c1	6	-2.2	-17	-0.8	3.5%	0
CCCOc1ccc(-c2c(C(=O)N/N=C/c3ccccc3)nnn2-c2nonc2N)cc1	13	-0.2	0	1.2	14%	-7
CC(=O)c1ccc(NC(=O)C2CCC(C)(C(=O)O)C2(C)C)cc1 (configuration not stated)	5	0.7	10	0.4	3.5%[38.3 µM]	6
O=C(COC(=O)c1cnccn1)Nc1ccc(Cl)cc1	-17	-3.5	-15	0.7	-0.6%	0
COc1cccc(NC(=O)CCNS(=O)(=O)c2cccc3nonc23)c1	24	2.3	-3	-0.8	3.0%	-1
O=C(O)c1cnn2c1C(=O)N(Cc1cccs1)CC2	-8	-0.4	-5	0.3	0.6%	-11
CCCCc1nn2c(C)c(-c3ccc(OCC)cc3)nc2s1	4	.	.	-0.7	3.5%	.
COc1ccc(S(=O)(=O)Cc2ccc(C(=O)N3CCN(c4cccc(C)c4C)CC3)o2)cc1	13	-2.4	-2	-0.2	0.7%	-10
N#Cc1ccc(COc2cccnc2[N+](=O)[O-])cc1	47	-0.2	1	-0.4	-0.1%	4
CCCN(CC1CC1)C(=S)NC(=O)C1CC1	27	-1.5	-20	-0.3	-1.5%	-2
c1ccc2[nH]c(SCCN3CCOCC3)nc2c1	-1	4.4	-3	0.3	0.4%[38.3 µM]	6
CC1Cc2ccccc2N1C(=O)COC(=O)/C=C/c1ccc(F)cc1 (configuration not stated)	4	-4.2	-4	1.3	0.6%	0
CN1CCN(c2nnc(-c3ccc(Cl)cc3)c3ccccc23)CC1	.	-6.9	-19	.	-1.3%	-16
CC(C)(C)NC(=O)C(c1ccc(-c2ccccc2)cc1)N(C[C@H]1CC[C@@H]([C@@H]2CC[C@H](CO)O2)O1)C(=O)c1cccc(Cl)c1 (some centres not stated)	-6	1.6	-5	1.9	6.3%	-1
COc1cc(Cl)c(CNC[C@H]2O[C@@H](n3cnc(C(N)=O)n3)[C@H](O)[C@@H]2O)c(Cl)c1O	9	-1.8	.	-0.1	-0.6%	3
CC(NC(=O)OC(C)(C)C)C(=O)Oc1ccc2ccc(=O)oc2c1 (configuration not stated)	-19	-4.2	-12	0.0	1.3%	-3
COc1ccc(S(=O)(=O)N(CC(=O)Nc2ccc(S(=O)(=O)N3CCOCC3)cc2)c2ccccc2)cc1	-2	0.9	-16	2.0	1.1%	0
CCCN(C(=O)CSc1nnc(N)s1)c1c(N)n(Cc2ccccc2)c(=O)[nH]c1=O	18	0.6	3	-0.6	-1.4%	4
Cn1c(=O)c(C(=O)Nc2ncccc2O)c(O)c2ccccc21	0	-1.2	6	-0.6	7.9%	-23
